Bioassay records (PubChem BioAssay)
VDR inhibitor: Inhibitors of the vitamin D receptor (VDR): qHTS | Vitamin D3 receptor (Homo sapiens), P11473 | VDR-SRC2-3 peptide fluorescence polarization, 2 h | Potency, µM, for the others: max response, negative = inhibition, most hits filed as inhibitors | hit rate 0.93% among 400,000 | AID 504847, 2011; active = well fitted inhibition curve with a large enough effect; inconclusive = small, poorly fitted or top-dose-only effect, or another doubt; inactive = no such curve, though single readings can be large or run the other way; also: series mostly up to about 120 µM
Target sequence (P11473 whole entry, looked up): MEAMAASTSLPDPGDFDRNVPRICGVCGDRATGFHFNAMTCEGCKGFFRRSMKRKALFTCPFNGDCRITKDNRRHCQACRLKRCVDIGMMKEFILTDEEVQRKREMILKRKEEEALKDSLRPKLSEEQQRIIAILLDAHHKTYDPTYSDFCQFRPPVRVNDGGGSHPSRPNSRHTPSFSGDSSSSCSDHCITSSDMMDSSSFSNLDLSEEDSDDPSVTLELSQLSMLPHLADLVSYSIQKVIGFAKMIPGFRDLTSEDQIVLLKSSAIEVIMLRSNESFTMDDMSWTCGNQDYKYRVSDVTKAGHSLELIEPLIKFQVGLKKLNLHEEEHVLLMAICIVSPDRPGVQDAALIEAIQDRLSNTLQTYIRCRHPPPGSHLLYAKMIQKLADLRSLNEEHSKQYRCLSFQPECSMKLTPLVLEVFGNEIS
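Inhibition of the VDR/SRC2-3 peptide interaction is quantified by fluorescence polarization. Compounds (23 nl, pintool) incubate with the reagents for 2 hours at ambient room temperature.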
* marks the source's active call; other numbers are inactive results; & = joins results of further samples. % is scaled to controls: 0 for no effect and ±100 for the full control effect; potency is read from the fitted curve at half-maximal effect.

Screening CCc1nnc(NC(=O)CSc2nncc(=O)n2N)s1 returned VDR inhibitor -16%.
Screening Cc1ccc(NC(=O)COC(=O)C2C3CC4OC(=O)C2C4C3)cc1Cl (stereo not drawn) returned VDR inhibitor 4%.
COc1ccc(N2CCN(S(=O)(=O)c3ccc4c(c3)NC(=O)C(C)S4)CC2)cc1 (stereo not drawn) was read as VDR inhibitor -12%.
For Cc1cc(Cl)c(S(=O)(=O)Nc2ccc3c(c2)OCO3)cc1OCC(N)=O the results were VDR inhibitor -14%.
CCc1sc(C(=O)Nc2ncccc2O)cc1C was read as VDR inhibitor 12%.
For Cc1csc(NC(=O)C2C3C=CC(O3)C2C(=O)O)n1 (stereo not drawn) the results were VDR inhibitor 0%.
For N=C(N)S/C=C\C(=O)O the results were VDR inhibitor 28µM*.
`NC(=O)CSc1nnc(-c2cccnc2)n1CCc1ccccc1` gave VDR inhibitor 14%.
For CCS(=O)(=O)N1Cc2ccccc2CC1C(=O)Nc1nc2ccc(C)cc2s1 (stereo not drawn) the results were VDR inhibitor -11%.
`O=C(c1cc(COc2cccc(C(F)(F)F)c2)on1)N1C[C@H]2CC[C@H]1C2` gave VDR inhibitor -1%.
For Cc1cc(C)c2[nH]c(=O)c(CN(CC3CCCO3)C(=O)c3cnccn3)cc2c1 (stereo not drawn) the results were VDR inhibitor 4%.
`S=c1[nH]cc(-c2ccc(Cl)cc2)n1Cc1ccccc1` gave VDR inhibitor -1%.
Screening Cn1c(=O)c2c([nH]c(=O)n2C)n(Cc2ccccc2)c1=O returned VDR inhibitor 12%.
`COc1cc(OC)cc(Oc2ccc(S(=O)(=O)N3CCCCC3)cc2[N+](=O)[O-])c1` gave VDR inhibitor 11%.
Screening CCN(C(=S)NCCOC)c1cccc2ccccc12 returned VDR inhibitor -2%.
Screening CCn1cc(C(=O)N(CCCN2CCOCC2)Cc2ccco2)c(=O)c2ccc(C)nc21 returned VDR inhibitor 13%.
`CCOCCCNC(=O)C(=O)Nc1c2c(nn1-c1ccccc1)CSC2` gave VDR inhibitor 4%.
Screening Cc1ccc(S(=O)(=O)CCC(=O)OCC(=O)N(C)Cc2ccccc2)cc1 returned VDR inhibitor -3%.
For O=C1CC(N2CCN(c3ccccn3)CC2)C(=O)N1CC(c1ccccc1)c1ccccc1 (stereo not drawn) the results were VDR inhibitor 7%.
For Cc1ccc(S(=O)(=O)NCC(=O)N(CC(=O)NC2CCCC2)c2ccc3c(c2)OCCO3)cc1 the results were VDR inhibitor -19%.

Structures listed so far that have an NH in an aromatic ring, in the order listed:
For Cc1cc(C)c2[nH]c(=O)c(CN(CC3CCCO3)C(=O)c3cnccn3)cc2c1 (stereo not drawn) the results were VDR inhibitor 4%.
`S=c1[nH]cc(-c2ccc(Cl)cc2)n1Cc1ccccc1` gave VDR inhibitor -1%.
Screening Cn1c(=O)c2c([nH]c(=O)n2C)n(Cc2ccccc2)c1=O returned VDR inhibitor 12%.

Next entries.
COc1cccc(N2C(=NC(=O)CCC3CCCC3)SC3CS(=O)(=O)CC32)c1 (stereo not drawn) was read as VDR inhibitor 4%.
Screening COC(=O)c1c(N)n(-c2ccc(OC)c(Cl)c2)c2nc3ccccc3nc12 returned VDR inhibitor -18%.
Screening Cn1c(SCC(N)=O)nnc1C1CCN(C(=O)NC2CCCCC2)CC1 returned VDR inhibitor -1%.
CCOC(=O)c1c(C)oc2nc(C)nc(NCCc3ccc(OC)c(OC)c3)c12 was read as VDR inhibitor 17%.
CCOc1ccc(S(=O)(=O)N2CCCC(C(=O)NC3CCCC3)C2)cc1 (stereo not drawn) was read as VDR inhibitor -18%.
O=C(CN1C(=O)NC2(CCCCC2)C1=O)Nc1ccc2[nH]c(=O)[nH]c2c1 was read as VDR inhibitor -18%.
For Cc1nn(C)c(C)c1CCC(=O)N1CCCC(Nc2ccc(C(C)C)cc2)C1 (stereo not drawn) the results were VDR inhibitor -10%.
Screening CCC(C)(C(=O)NC1CCCC1)N(Cc1cccs1)C(=O)Cc1cccs1 (stereo not drawn) returned VDR inhibitor -16%.
For CC1=C(c2ccc(Cl)cc2)S(=O)(=O)N=C1N1CCN(c2cc(C)ccc2C)CC1 the results were VDR inhibitor -5%.
For CCOC(=O)c1ccc(NC(=O)CSc2nnc(CNC(=O)c3ccccc3F)o2)cc1 the results were VDR inhibitor 11%.
Cc1cccc(N(C)C(CNS(=O)(=O)c2ccccc2)c2ccccc2)c1 (stereo not drawn) was read as VDR inhibitor 13%.
For CN1CCN(CC(=O)N2c3ccccc3C(=O)Nc3cccnc32)CC1 the results were VDR inhibitor -10%&14%&-11%&-3%.
Screening COc1ccc(CNCc2cc3c(C(C)(C)C)nn(-c4ccccc4)c3[nH]c2=O)cc1 returned VDR inhibitor -8%.
For Cc1ccc(C)c(S(=O)(=O)N2CCN(Cc3ccc(O)c4ncccc34)CC2)c1 the results were VDR inhibitor -8%.
`O=C1CN(c2ccc(F)cc2)C(=S)N1c1ccccc1` gave VDR inhibitor 3%.
`O=C(Nc1ccc2nsnc2c1)c1cccs1` gave VDR inhibitor -4%.
`N#Cc1c(C(F)(F)F)cc(-c2ccco2)nc1SCc1ccccn1` gave VDR inhibitor -5%.
CCOc1ccc(-c2cc(C(=O)NCC3CCCO3)c3ccccc3n2)cc1 (stereo not drawn) was read as VDR inhibitor -9%.
Cc1ccc(-n2[nH]c(C)c(C=NC34CN5CN(CN(C5)C3)C4)c2=O)cc1C was read as VDR inhibitor -8%.
For O=C(N/N=C/c1ccncc1)c1nn(Cc2ccccc2)c(=O)c2ccccc12 the results were VDR inhibitor -3%.
For O=C(CSc1nnc2ccccn12)NNC(=O)c1ccc(F)cc1 the results were VDR inhibitor -7%.
`COc1ccc(OC)c(Nc2nc(-c3ccncc3)nc3ccccc23)c1` gave VDR inhibitor -2%.
`CCOc1ccc(CNC(=O)c2cccn2-c2nnc(N3CCCCC3)s2)cc1OC` gave VDR inhibitor -6%.
Cc1ccc(-n2c(SCC(=O)N3CCN(c4ccccn4)CC3)nnc2N2CCCC2)cc1 was read as VDR inhibitor -7%.
For O=C1OCCC1Sc1nnc(-c2ccccc2Cl)n1Cc1ccccc1 (stereo not drawn) the results were VDR inhibitor -14%.
COc1cccc(CC2(CO)CCCN(Cc3ccc(CN4CCCCC4)s3)C2)c1 (stereo not drawn) was read as VDR inhibitor 5%.
O=C(CN1CCCC1)NCc1ccccc1 was read as VDR inhibitor -7%.
O=C(Nc1nc2ccccc2[nH]1)c1cc(F)cc(F)c1 was read as VDR inhibitor 2%.
CN1CCC(C2(O)c3ccccc3CCc3ccccc32)CC1 was read as VDR inhibitor 2%.
CS(=O)(=O)N1CCCC(C(=O)Nc2ccc(F)cc2)C1 (stereo not drawn) was read as VDR inhibitor -10%.
For O=S(=O)(Cc1cnc(Cl)s1)c1ccccc1 the results were VDR inhibitor 5%.
`N#Cc1ccc(OCC(=O)N/N=C2\CCc3ccccc32)cc1` gave VDR inhibitor -11%.
For Cc1csc(SCC(=O)N2CCN(S(=O)(=O)c3ccccc3)CC2)n1 the results were VDR inhibitor -23%.
For O=C(c1cc(=O)[nH]c2ccccc12)N(Cc1nnc(-c2ccccc2Cl)o1)C1CC1 the results were VDR inhibitor -7%.
For O=C(Nc1cccc(Cl)c1)c1ccc2ncsc2c1 the results were VDR inhibitor 30%.
Screening O=S(=O)(NCc1cn2ccsc2n1)c1ccc2c(c1)OCCO2 returned VDR inhibitor 6%.
[O-][n+]1cccc2cccc(O)c21 was read as VDR inhibitor -9%.
For O=C(NCCCN1CCOCC1)c1ccc(CSc2ccc(Cl)cc2)cc1 the results were VDR inhibitor 1%.
`CCOC(=O)N1CCN(C(=O)c2ccc3c(=O)n(-c4cc(OC)ccc4OC)c(=S)[nH]c3c2)CC1` gave VDR inhibitor 9%.
C=C(c1ccc2nc(NC(=O)OC)[nH]c2c1)c1cccs1 was read as VDR inhibitor -8%.

Overlap with the part before: three compounds, followed by the next part.
For O=C(NCCCN1CCOCC1)c1ccc(CSc2ccc(Cl)cc2)cc1 the results were VDR inhibitor 1%.
`CCOC(=O)N1CCN(C(=O)c2ccc3c(=O)n(-c4cc(OC)ccc4OC)c(=S)[nH]c3c2)CC1` gave VDR inhibitor 9%.
C=C(c1ccc2nc(NC(=O)OC)[nH]c2c1)c1cccs1 was read as VDR inhibitor -8%.
`NS(=O)(=O)c1ccc(NC(=S)Nc2ccc(S(=O)(=O)N3CCCC3)cc2)cc1` gave VDR inhibitor 11%.
Screening CCCc1ccc(-c2cc(NC(=O)CSc3nnc(N)s3)n(-c3ccccc3)n2)cc1 returned VDR inhibitor 7%.
O=C(Nc1ccccc1N1CCCCC1)c1ccc(F)c(S(=O)(=O)N2CCOCC2)c1 was read as VDR inhibitor 5%.
Screening CCOC(=O)N1CCc2c(sc3c2c(=O)n(-c2ccc(CC)cc2)c(=O)n3Cc2ccc(F)cc2Cl)C1 returned VDR inhibitor 1%.
Screening Cc1noc(C)c1S(=O)(=O)N1CCCC1C(=O)O (stereo not drawn) returned VDR inhibitor 0%.
Screening COc1ccc(C)cc1NC(=O)c1ccc2c(c1)OCO2 returned VDR inhibitor 12%.
Screening O=C(c1ccc(COc2ccccc2Br)cc1)N1CCCCC1 returned VDR inhibitor -4%.
`COc1ccc(C(=O)NC2(C(F)(F)F)NC(=O)N(CCCc3ccccc3)C2=O)c(OC)c1OC` (stereo not drawn) gave VDR inhibitor -21%.
Screening COc1ccc(C2(C(N)=O)CCCCC2)cc1OC returned VDR inhibitor -19%.
Screening CC(OC(=O)CN1C(=O)c2ccccc2C1=O)C(=O)c1ccccc1 (stereo not drawn) returned VDR inhibitor 1%.
CCN1CCc2c(sc(NC(=O)c3ccc(S(=O)(=O)N(C)CC4CCCO4)cc3)c2C(N)=O)C1 (stereo not drawn) was read as VDR inhibitor -24%.
Screening COc1ccc(N2CCN(C(=O)c3cn(C4CCCC4)c(=O)c4c3c3ccccc3n4C)CC2)cc1 returned VDR inhibitor -2%.
CC(=O)N1c2ccc(S(=O)(=O)N3CCCC3C(=O)NCc3ccc(Cl)cc3)cc2CC1C (stereo not drawn) was read as VDR inhibitor 2%.
`COc1cccc(NC(=O)CN(C)C(=O)Cc2cccc3ccccc23)c1` gave VDR inhibitor 7%.
`Cn1c2ccc(F)cc2c2nnc(SCCN3CCOCC3)nc21` gave VDR inhibitor -9%.
For CCOc1ccc(C(=O)NC(=S)Nc2cccnc2)cc1[N+](=O)[O-] the results were VDR inhibitor inconclusive.
Screening Cc1cc(C(=O)CSc2nnc(-c3ccccc3)n2C)c(C)n1C returned VDR inhibitor 19%.
`CC(C)CC1CC(C)(c2csc(NNC(=O)c3ccccc3)n2)OC1=O` (stereo not drawn) gave VDR inhibitor inconclusive.
COC1CCC2(C)C(=CCC3C4CC(O)CC4(C)CCC32)C1 (stereo not drawn) was read as VDR inhibitor -9%.
`Cc1cc(Nc2cnc3ccccc3n2)n(-c2ccccc2)n1` gave VDR inhibitor 3%.
For Cc1cc(C)c2c(n1)nn1c(NCCN3CCOCC3)cc(C)nc21 the results were VDR inhibitor -3%.
Screening NC(CC(=O)O)c1ccc(F)cc1 (stereo not drawn) returned VDR inhibitor 4%.
For CN(c1ccccc1)S(=O)(=O)c1ccc(C(=O)NCCc2ccccc2)cc1 the results were VDR inhibitor 20%.
`Cn1nccc1C(=O)NC1CCCc2c1cnn2-c1ccc(F)cc1F` (stereo not drawn) gave VDR inhibitor -10%.
For COc1cc(/C=C/C(=O)OCC(=O)NC(=O)NC(C)C)cc(S(=O)(=O)N2CCc3ccccc32)c1OC the results were VDR inhibitor -19%.
COc1ccc(C(=O)N2CCN(C(=O)C3CCCO3)CC2)cc1[N+](=O)[O-] (stereo not drawn) was read as VDR inhibitor 9%.
`COc1ccc(N2CC(C(=O)NCc3n[nH]c(=O)c4ccccc34)CC2=O)cc1` (stereo not drawn) gave VDR inhibitor 16%.
COc1ccc(C(=O)NCC(C)(C)SCc2c(C)cc(C)cc2C)cc1 was read as VDR inhibitor 0%.
CN(C)c1cccc(C(=O)N2CCCC(CCC(=O)N3CCN(c4ccccn4)CC3)C2)c1 (stereo not drawn) was read as VDR inhibitor -2%.
CCOC(=O)c1ccc(N2C(=O)c3n[nH]c(-c4cccs4)c3C2c2ccc(C)cc2)cc1 (stereo not drawn) was read as VDR inhibitor -17%.
C#CCn1cccc(C(=O)Nc2ccc(OC)cc2)c1=O was read as VDR inhibitor -11%.
Nc1ccc(-n2cnc3cc([N+](=O)[O-])ccc32)cc1 was read as VDR inhibitor -13%.
`CC1CCN(CCc2nc3cc(NS(=O)(=O)c4ccc(F)cc4)ccc3n2C)CC1` gave VDR inhibitor -8%.
Screening COc1ccc(-c2nc3ccccc3o2)cc1NC(=O)COc1ccc(C(C)(C)C)cc1 returned VDR inhibitor -8%.
C#CCNC(=O)C1=C[C@@H](C)C[C@@H](OCc2ccc(CO)cc2)O1 was read as VDR inhibitor 6%.
For Cc1ccccc1Nc1nc(-c2cccnc2)cs1 the results were VDR inhibitor -16%.
CCn1ncc(CN2CCCC(CNC(=O)c3ccc(F)cc3)C2)c1C (stereo not drawn) was read as VDR inhibitor 4%.
CCC1(c2ccc(F)cc2)NC(=O)N(CC(=O)N2CCN(C(=O)c3cccs3)CC2)C1=O (stereo not drawn) was read as VDR inhibitor -3%.
For Cc1cccc(NC(=O)CSc2nc(N)c(NC(=O)c3cccs3)c(=O)[nH]2)c1C the results were VDR inhibitor -17%.
Screening CCc1ccc(NC(=O)Cn2c(SC)nc3ccccc32)cc1 returned VDR inhibitor 14%.

Some of these compounds in order of molar mass, rising.
C#CCn1cccc(C(=O)Nc2ccc(OC)cc2)c1=O was read as VDR inhibitor -11%.
C#CCNC(=O)C1=C[C@@H](C)C[C@@H](OCc2ccc(CO)cc2)O1 was read as VDR inhibitor 6%.
COc1ccc(C(=O)NCC(C)(C)SCc2c(C)cc(C)cc2C)cc1 was read as VDR inhibitor 0%.
`COc1ccc(N2CC(C(=O)NCc3n[nH]c(=O)c4ccccc34)CC2=O)cc1` (stereo not drawn) gave VDR inhibitor 16%.

These rows are one share of the data; the hit share may differ from the screen's.
